PINK1 expr mod: modulators of PINK1 expression; PINK1 immunofluorescence, high-content cytometry, 24 h; Potency, µM (titrated, usually from 76.6 µM), without a hit: at the highest dose activation (PINK1 increase), usual class: activators; hit rate 0.2% among 410,000; AID 624263; active = well fitted activation curve with a large enough effect; inconclusive = small, poorly fitted or top-dose-only effect; inactive = flat fitted curve, though single readings scatter; cell line not stated here;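 also: potency is read from the fitted curve at half-maximal effect; % of control where 0% means no effect; nearly all actives have a fitted effect of over 65% in size; a mitochondrial uncoupler was the plate control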
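PINK1 protein, normally rapidly degraded, was detected by immunofluorescence after 24 hour compound treatment of a stable cell line. Titration data (5 concentrations) came from laser-scanning cytometry, with CCCP-treated wells as controls.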
D2 potentiator: positive allosteric modulators of human D2 dopamine receptor; hit rate 0.23% among 360,000; potentiation, % (no concentration beside the values); P14416; DiscoveRx D2 beta-arrestin cells, luminescence, 90 min; 100% = 57 uM dopamine signal; active = potentiation of 50% or more; inconclusive = 30% to 50%; inactive = 30% or less;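 also: compound concentration not given in the record; tested on top of an EC20 dose of dopamine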
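D2 cells co-treated with compound plus 50 nM dopamine (EC20) for 90 min at 37 deg C to detect potentiation. Beta-arrestin recruitment was read as enzyme-fragment luminescence after 1 h at ambient temperature. Full response was set by 57 uM dopamine.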
CtBP-E1A blk: CtBP/E1A binding inhibition | AID 651724 | hit rate 0.49% among 340,000 | activity change, % (test concentration not listed) | AlphaScreen GST-E1A/His-CtBP binding, 1536-well; active compounds read low; control for the full effect not named in the record; in the data active means activity change below about -65%; inconclusive means about -30% to -65%; inactive means above about -30%; also: % is scaled to controls: 0 for no effect and ±100 for the full control effect
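Homogeneous bead-based format: GST-tagged E1A captured on glutathione donor beads, His-tagged CtBP on nickel acceptor beads; compounds precede bead addition by 2 h at 37 °C.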
TRPV1 potentiator: human TRPV1 potentiation. Q8NER1. TRPV1-expressing cells, Fluo-8 calcium influx, capsaicin EC20 potentiation; host cell line not named in the record; control for the full effect not named in the record. potentiation, % at 8.33 µM. hit rate 0.02% among 320,000. AID 540277; active means potentiation above 80%; inconclusive means 30% to 80%; inactive means below 30%; also: 0% is about no effect
Target sequence (Q8NER1 whole entry, looked up): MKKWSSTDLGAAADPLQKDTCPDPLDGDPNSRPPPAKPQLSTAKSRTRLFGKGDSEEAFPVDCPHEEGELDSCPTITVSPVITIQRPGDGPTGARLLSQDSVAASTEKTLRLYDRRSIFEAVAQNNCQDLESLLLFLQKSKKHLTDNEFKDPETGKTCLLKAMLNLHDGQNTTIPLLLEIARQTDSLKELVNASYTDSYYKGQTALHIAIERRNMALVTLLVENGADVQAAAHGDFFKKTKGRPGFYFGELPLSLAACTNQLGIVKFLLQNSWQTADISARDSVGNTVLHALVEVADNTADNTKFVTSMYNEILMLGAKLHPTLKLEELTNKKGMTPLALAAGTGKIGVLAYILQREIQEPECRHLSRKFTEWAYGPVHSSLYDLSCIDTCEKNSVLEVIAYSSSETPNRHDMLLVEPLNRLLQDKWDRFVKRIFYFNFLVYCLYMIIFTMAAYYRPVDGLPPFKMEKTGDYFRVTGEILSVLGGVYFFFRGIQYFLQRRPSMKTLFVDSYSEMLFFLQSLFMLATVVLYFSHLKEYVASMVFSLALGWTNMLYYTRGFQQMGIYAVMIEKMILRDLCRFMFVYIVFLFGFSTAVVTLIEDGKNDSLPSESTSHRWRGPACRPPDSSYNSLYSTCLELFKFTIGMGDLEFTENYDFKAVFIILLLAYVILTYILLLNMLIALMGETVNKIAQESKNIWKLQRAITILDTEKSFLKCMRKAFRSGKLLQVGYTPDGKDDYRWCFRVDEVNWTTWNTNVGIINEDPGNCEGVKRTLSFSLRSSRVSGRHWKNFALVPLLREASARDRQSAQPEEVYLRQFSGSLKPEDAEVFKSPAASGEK
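Cells expressing TRPV1 were dye-loaded with Fluo-8 and read kinetically: 10 s baseline, 3 min after compound (agonist portion), then 2 min after EC20 capsaicin (allosteric enhancer portion). Calcium-bound dye fluorescence at 480/520 nm.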
D2 ag: human D2 receptor agonism in beta-arrestin assay; AID 624465; P14416; activation, % (test concentration not listed); DiscoveRx PathHunter D2 beta-arrestin, luminescence, 90 min; 100% = 57 uM dopamine signal; hit rate 0.084% among 360,000; in the data active = activation above about 40%; inconclusive = about 15% to 40%; inactive = below about 15%; also: compound concentration not given in the record; the text of the record calls up to 30% inactive
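DiscoveRx PathHunter D2 beta-arrestin cells (2,100/well) attached overnight, then compound-stimulated 90 min at 37 C in HBSS/10 mM HEPES/0.1% Tween-20 buffer; beta-galactosidase complementation read by luminescence after 1 h at ambient temperature. Dopamine 57 uM final (EC100) as control.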
Sfp PPTase inh: Sfp phosphopantetheinyl transferase inhibition | Biochemical Sfp PPTase activity, qHTS | Potency, µM, for the others: max response, negative = inhibition, most hits filed as inhibitors | hit rate 3.5% among 310,000 | AID 1490; active = well fitted inhibition curve with a large enough effect; inconclusive = small, poorly fitted or top-dose-only effect, or another doubt; inactive = no such curve, though single readings can be large or run the other way;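 also: the enzyme is Sfp with the accession as filed and its product quenches rhodamine fluorescence; potency is read from the fitted curve at half-maximal effect; 0% = enzyme reaction without inhibitor and -100% = no enzyme wells; top concentration of the series not given in the record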
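Reaction rates are the 30-min fluorescence difference (ex 525, em 598 nm) in wells containing 15 nM Sfp, 5 uM rhodamine-CoA and 12.5 uM BHQ-2-YbbR at pH 7.6 with 10 mM MgCl2.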
Six1-Eya2 inh: blocks human Six1 binding to Eya2; Q15475+O00167; AlphaScreen GST-Six1/His-Eya2 binding, biochemical; active compounds read low; control for the full effect not named in the record; activity change, % (no concentration beside the values); hit rate 0.56% among 360,000; in the data active = activity change below about -65%; inconclusive = about -30% to -65%; inactive = above about -30%; also: % is scaled to controls: 0 for no effect and ±100 for the full control effect
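Compounds are tested against tagged Six1 and Eya2 proteins bridged by glutathione donor and nickel acceptor beads; after a one-hour incubation at 37 °C without light, AlphaScreen emission is recorded.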
* marks the source's active call; other numbers are inactive results; ? = inconclusive; · = not tested or not shown; & = joins results of further samples; [ ] = another dose, or the depositor's remark. An unsorted share of the library; about 3.7% have a hit in one of these screens.

The line under a structure holds: PINK1 expr mod	D2 potentiator	CtBP-E1A blk	TRPV1 potentiator	D2 ag	Sfp PPTase inh	Six1-Eya2 inh
> CCN(CC)C(=O)c1ccc2nc3ccccc3nc2c1
    26.5%	-2.0	2.8	0.2	-4.9	-1.0%	4.2
> CCNC(=O)C1(C)CCCN1C(=O)c1c(F)cccc1F (centres undefined)
    0.2%	-2.8	2.3	·	-4.0	·	1.4
> COc1ccc(-n2c(=O)c3c(C)c(C)sc3n(Cc3ccc(F)cc3)c2=O)c(OC)c1
    1.8%&2.1%	-6.9	-23.7	-14.9	0.5	2.6%	-0.6
> Cc1nc(NC(=O)CSc2nnc(C3CC3)n2C)sc1C
    0.6%	-3.7	-8.9	-0.3	-0.2	10.7%	-0.2
> OC1(c2ccccc2)CCN(Cc2ccccc2)C2CCCCC21 (centres undefined)
    18.2%	-37.1	1.6	-2.3	-6.0	-2.5%	-0.9
> CN1C(=O)CSC1=Nc1ccc(F)cc1
    0.6%	0.4	14.4	6.9	-6.6	19.6%	12.3
> COC(=O)CON1C(=O)c2ccccc2C1=O
    -1.3%[38.3 µM]	-5.4	5.3	3.8	-1.9	-13.5%	6.1
> Cn1nnnc1SCC(=O)Nc1nc2c(F)c(F)c(F)cc2s1
    -2.8%	-0.2	3.9	·	-2.5	·	8.7
> COc1ccc2[nH]c3c(c2c1)CCN1C(=O)N([C@@H](C)C(=O)NCc2ccc(F)cc2)C(=O)[C@]31C
    9.9%	-8.7	-2.7	11.2	-3.8	8.9%	-7.0
> Cc1ccc(NC(=O)CCN2C(=O)C3C4CCC(C4)C3C2=O)cc1[N+](=O)[O-] (centres undefined)
    -1.1%	-1.2	-1.7	-6.2	-2.6	1.0%	2.2
> CC(Oc1ccc(Cl)cc1Cl)C(=O)NNC(=O)[C@@H]1CCCC[C@@H]1C(=O)O (some centres undefined)
    1.4%	3.1	2.4	6.6	-2.3	4.5%	2.0
> CCOC(=O)CNC(=O)N(C)[C@H]1C[C@H]2c3[nH]c4ccccc4c3CCN2C[C@H]1[C@H](C)O
    -0.4%	-9.2	5.3	·	-3.3	·	5.1
> COc1ccc(/C=C(\NC(=O)c2ccc(C)cc2)C(=O)N2CCCCC2)cc1
    -0.1%	-5.6	·	6.3	3.5	0.1%	1.6
> Cc1occc1-c1nnc(SCC(=O)Nc2ccccc2-c2ccccc2)n1C
    1.0%	-12.4	-6.1	-2.0	1.8	-0.8%	-0.2
> CN(CC(O)Cn1c2ccccc2c2ccccc21)S(C)(=O)=O (centres undefined)
    -1.2%	12.8	-20.9	6.6	-0.3	12.3%	4.2
> CC(=O)n1c2ccccc2c2nc3ccccc3nc21
    4.6%	-5.0	-2.2	?	-2.2	13.1%	2.3
> COc1cc(OC)cc(C(=O)N[C@H](C(=O)OCC(=O)Nc2cccc(F)c2)C(C)C)c1
    0.1%	-5.2	1.7	2.4	-2.1	1.4%	4.5
> Cc1ccc(C)c(S(=O)(=O)N2CCN(C(=O)c3ccc(N4CCCC4)c([N+](=O)[O-])c3)CC2)c1
    0.4%	7.2	?	5.8	-1.4	-2.4%	-28.2
> CN(C)c1ccc(-c2ccc3c(=O)c4ccccc4n(C)c3c2)cn1
    ?	0.1	-2.7	20.0	2.1	-0.7%	-7.3
> O=C(CCC1CCCN(C2C3CC4CC(C3)CC2C4)C1)NCc1ccc(F)c(F)c1 (centres undefined)
    -0.3%	-7.3	2.4	-12.4	-0.6	15.2%	0.1
> CN1C(=O)NC(c2ccccc2[N+](=O)[O-])C2=C1CC(C)(C)CC2=O (centres undefined)
    0.5%	-2.3	-2.9	-5.3	-1.9	-22.9%	5.6
> CCN(CC)CCN(C(=O)Cn1nnc(-c2ccc(OC)c(OC)c2)n1)C(C(=O)NC1CCCC1)c1ccc(F)cc1 (centres undefined)
    ·	2.6	-16.8	3.1	-1.0	4.5%	-10.7
> CCS(=O)(=O)NC(C)C(c1cccs1)N1CCN(c2ccc(OC)cc2)CC1 (centres undefined)
    -1.1%	-6.1	-0.5	-37.2	-3.0	0.2%	-10.5
> CC(C)C(=O)NCCCc1ccccc1
    1.2%	-1.8	5.8	-6.3	-1.2	9.0%	7.9
> O=C(CCl)NCCCN(C(=O)C(Cl)Cl)c1ccc([N+](=O)[O-])cc1
    -0.5%	2.6	·	-6.6	2.4	8.1%	24.0
> O=C(NCCN1CCN(c2ccccc2)CC1)c1ccc(NC(=O)C2CCCO2)cc1 (centres undefined)
    -1.7%	0.8	-1.2	14.6	?	-5.1%	-0.9
> Cc1ccc2[nH]c(=O)c(-c3nc4c(C)cccn4c3NCc3ccco3)cc2c1
    14.2%	17.8	-0.1	-4.2	-1.1	?	0.1
> C/C(=N/Nc1ccccc1[N+](=O)[O-])c1ccc(C)c([N+](=O)[O-])c1
    0.8%	-8.7	-2.2	-9.7	2.5	3.4%	-4.4
> CCOC(=O)C1(Cc2ccccc2)CCN(Cc2ccc3cc(NC(C)=O)ccc3n2)CC1
    -0.4%	-6.8	5.2	-3.6	-2.5	-17.1%	-2.9
> CCOC(=O)Cc1csc(NC(=S)NC(=O)c2ccc(F)cc2)n1
    12.8%	-6.7	11.8	-15.8	-5.4	-71.6%	-5.5

Full records, quoted from the list. Order of screens: PINK1 expr mod | D2 potentiator | CtBP-E1A blk | TRPV1 potentiator | D2 ag | Sfp PPTase inh | Six1-Eya2 inh
Shown for Cc1ccc2[nH]c(=O)c(-c3nc4c(C)cccn4c3NCc3ccco3)cc2c1 : 14.2% | 17.8 | -0.1 | -4.2 | -1.1 | ? | 0.1
Shown for CCS(=O)(=O)NC(C)C(c1cccs1)N1CCN(c2ccc(OC)cc2)CC1 (centres undefined) : -1.1% | -6.1 | -0.5 | -37.2 | -3.0 | 0.2% | -10.5
Shown for O=C(NCCN1CCN(c2ccccc2)CC1)c1ccc(NC(=O)C2CCCO2)cc1 (centres undefined) : -1.7% | 0.8 | -1.2 | 14.6 | ? | -5.1% | -0.9
Shown for O=C(CCl)NCCCN(C(=O)C(Cl)Cl)c1ccc([N+](=O)[O-])cc1 : -0.5% | 2.6 | · | -6.6 | 2.4 | 8.1% | 24.0

Next structures follow.
The line under a structure holds: PINK1 expr mod	D2 potentiator	CtBP-E1A blk	TRPV1 potentiator	D2 ag	Sfp PPTase inh	Six1-Eya2 inh
> C[C@@H]1CN([C@H](C)CO)C(=O)c2c(c3ccccc3n2C)-c2ccccc2CO[C@@H]1CN(C)Cc1ccc(O)cc1
    0.2%	·	0.0	·	1.1	·	-5.6
> O=C(NCCN1C(=O)C2C3C=CC(C3)C2C1=O)NCc1ccccc1 (centres undefined)
    -2.5%	-2.4	7.5	-3.2	-0.7	8.9%	1.6
> Cc1cccc(CCNC(=O)c2cccc(N3CCCC3=O)c2)c1
    -0.2%	-6.2	·	-7.2	-3.4	19.4%	5.6
> CCOC(=O)C(C)N1CC(=O)N(c2ccccc2)C1=O (centres undefined)
    -4.2%	0.2	0.5	·	3.4	·	-2.6
> CCc1ccc(C(=O)NNC(=O)Cn2c(=O)cnc3ccccc32)cc1
    1.5%	-3.2	·	1.3	-2.8	·	6.6
> Cn1c(=O)c2c(ncn2Cc2cc(-c3ccccc3)no2)n(C)c1=O
    -1.2%	-4.4	-4.2	7.0	0.8	7.1%	-1.7
> O=C(C1CCCN1S(=O)(=O)c1ccc(Cl)cc1)N1CCN(c2ccccc2)CC1 (centres undefined)
    0.7%	-12.8	-20.7	·	1.3	·	7.6
> Cc1ccc(OCC(=O)c2cc(C)n(CC(F)(F)F)c2C)c([N+](=O)[O-])n1
    14.7%	0.6	-6.1	12.8	2.6	7.6%	-6.8
> O=C(c1ccc(N2CCN(C(=O)c3ccc(F)c(F)c3)CC2)cc1)c1cccc(F)c1
    -0.6%	-3.6	4.5	-6.9	3.3	-0.5%	15.6
> C/C(=N\Nc1nc(C)cc(-c2ccccc2)n1)c1ccc(F)cc1
    1.6%	-8.5	·	-7.9	-5.0	23.8%	6.0
> CC(C)(C)OC(=O)C[C@H]1C/C=C\C[C@@H](CC(=O)N(CCO)Cc2ccccc2)C(=O)N[C@@H](c2ccccc2)COC1=O
    1.8%	-27.8	-2.6	·	-1.1	·	-10.1
> CCc1cccc2c(C(=O)Cn3nnc(-c4ccc(OC)c(OC)c4)n3)c[nH]c12
    7.3%	-4.2	1.2	13.2	1.9	-9.9%	-1.6
> O=C(CN1C(=O)COc2ccccc21)NCCCN1CCc2ccccc2C1
    -3.7%[38.3 µM]	-23.8	11.4	-14.5	-1.2	20µM*	-1.2
> COc1coc(C(O)CN)cc1=O (centres undefined)
    -1.2%	-6.7	-24.1	-3.2	-1.1	4.0%	-16.4
> CC(=O)NC(CC(=O)Nc1nc(-c2ccccc2)c(C(C)=O)s1)c1ccccc1 (centres undefined)
    0.8%	1.3	?	8.4	0.6	2.2%	-11.9
> COc1ccccc1-c1nc(C#N)c(NCCCn2ccnc2)o1
    -1.4%	-12.0	-23.4	-6.9	-6.8	-1.8%	-9.6
> CCCn1c(SCC(=O)C(C)(C)C)nc2ccccc21
    0.1%	4.0	3.7	-19.1	2.5	56.2µM*	9.3
> CCOc1ccccc1NC(=O)CN1CCC(NC(=O)Nc2ccccc2)CC1
    -3.1%	-10.0	-12.0	-2.1	-1.1	-7.3%	-2.8
> Cc1nnc2n(-c3ccccc3)c(=O)c3c4c(sc3n12)COC(C(C)C)C4 (centres undefined)
    1.1%	-16.6	-3.2	2.3	-2.8	11.7%	-6.5
> Cn1cnc(S(=O)(=O)N2CCCCC2c2cc(C(=O)NCc3ccc(Cl)c(Cl)c3)no2)c1 (centres undefined)
    1.0%	-3.7	-15.3	·	-3.2	·	-14.8
> O=C(Nc1ccc2c(c1)OCO2)c1cccc(S(=O)(=O)N2CCOCC2)c1
    -0.7%	-6.5	?	·	-1.7	·	-15.7
> CC1CCCN(c2cc(N(C)CCO)c([N+](=O)[O-])c3nonc23)C1 (centres undefined)
    -1.0%	-5.1	-0.7	?	-2.2	13.4%	0.0
> CC1CCN(S(=O)(=O)c2ccc(NC(=O)CCN3C(=O)C4CC=CCC4C3=O)cc2)CC1 (centres undefined)
    -1.0%	3.5	·	-25.6	-0.6	·	4.9
> COc1cc(CC(=O)Nc2cccc(S(=O)(=O)N(C)c3ccccc3)c2)cc(OC)c1OC
    2.4%	-9.0	·	·	0.1	·	-6.8
> O=C(O)CCC(=O)Nc1ccc(Cc2ccc(NC(=O)CCC(=O)O)c(O)c2)cc1O
    -0.2%	20.9	3.7	13.8	-2.7	-5.0%	1.7
